# High-throughput results: PubChem, several laboratories
# BJeLR lethal – BJeLR cell viability loss; 0.17% of 300,000 active; inhibition, % (test concentration not listed); BJeLR (HRASV12) viability, CellTiter-Glo ATP luminescence, 48 h; reference of the scale not given here;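 active means replicate mean above 50%; inconclusive means above 50% but judged a plate artefact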;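 further: 50 nL library stock added to about 25 µL; numbers are from one replicate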
# RN4220 kill – S. aureus RN4220 growth inhibition | OD600, 16 h | 0.33% of 330,000 active | AID 1259311 | inhibition, % (concentration not given with the values);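 active means z-score of -3 or lower and OD600 up to 0.18 on both plates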;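 further: plate controls were untreated cells for no effect and reference antibiotic for full effect; stock transfer was 100 nL into about 80 µL; one replicate is shown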
# Sa ugtP lethal – growth inhibition of S. aureus ugtP deletion strain; S. aureus RN4220 ugtP deletion, OD600 growth, 16 h; some inactives read as strong as hits; growth inhibition, % (test concentration not listed); 0.54% of 330,000 active;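 active means z-score under -3 and OD600 up to 0.15 on both plates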;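 further: plate controls were untreated wells for no effect and antibiotic for full effect; wells of about 80 µL received 100 nL stock; the first replicate is given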
# Bead autofluor – flagged as autofluorescent in microsphere protease counterscreen; compound autofluorescence counterscreen, microsphere flow cytometry; active compounds read high; fluorescence intensity (concentration not given with the values); 3.1% of 360,000 active;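 active means at least 3 SD above the mean of all compounds, about 16000 in these data; inconclusive means too few beads counted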;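 further: 100 nL of 1 mM stock went into each well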
# Mtb hypoxia rep – reduces hypoxia-regulated biosensor signal in M. tuberculosis; 0.1% of 300,000 active; M. tuberculosis hypoxia-regulated fluorescent reporter, fluorescence; AID 1159583; fluorescence inhibition, % (test concentration not listed);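 active means 35 to 45% if threefold the growth effect, above 45% if 1.5-fold the growth effect; inactive means the rest, general growth blockers included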;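 further: wells of about 50 µL received 100 nL stock; 0% = vehicle wells and 100% = reference inhibitor wells; whole bacteria with a GFP reporter of the hypoxia response; strong numbers were not always called active; many hits fall short of the cut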
# PrP 5UTR inh – suppresses PrP 5' UTR mRNA reporter expression. inhibition, % (test concentration not listed). 0.35% of 340,000 active. cell-based PrP 5' UTR mRNA reporter, plate reader. AID 488862;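 active means every replicate at 50% or more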;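 further: 0 = median of the neutral control wells; tested in H4 reporter cells; numbers are from one replicate; inactives centre near -14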
# Mtb hypoxia rep growth – also measured in Mtb hypoxia rep; calls as there; growth inhibition, %; measured here: M. tuberculosis growth (absorbance);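 0% = vehicle and 100% = reference antibiotic; read after six days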
# * = called active by the depositor; u = inconclusive; x = no result given.
entry	SMILES	BJeLR lethal	RN4220 kill	Sa ugtP lethal	Bead autofluor
1	CCCn1c(SCC(=O)O)nc2ccccc21	2	3.6	4	15860
2	COc1cccc(C(=O)NCC(C)(C)SCc2ccc(F)cc2)c1	4	-3.1	-3	3598
3	CCN(CC(=O)Nc1c(F)cccc1F)C(=O)c1ccc(S(=O)(=O)N2CCCC2)cc1	-11	1.5	1	5220
4	CC(Sc1nnc(-c2cccnc2)n1-c1ccccc1F)C(=O)N1CCCc2ccccc21 (configuration not stated)	8	2.9	3	x
5	COc1ccc(C(=O)N(Cc2ccc(N(C)C)cc2)C2CCS(=O)(=O)C2)cc1 (configuration not stated)	4	4.2	-2	3645
6	O=C(Nc1cccc(F)c1)Nc1ccccn1	-5	7.4	-7	9494
7	Cc1nn(C)c(C)c1Sc1ccc(Br)cc1	-4	-11	0	u
8	CC/C(=N/NC(=O)c1ccccc1)c1ccc(OCCN2CCOCC2)cc1	-1	x	x	11049
9	Cc1coc2c(O)cc3c(c12)OC1(N2CCCCC2)C(=O)NCCCC31 (configuration not stated)	x	38	3	1900
10	COc1ccc(NC(=S)Nc2ccc(OCc3ccccc3)cc2)c(OC)c1	-8	3.4	36	1883

entry	Mtb hypoxia rep	Mtb hypoxia rep growth	PrP 5UTR inh
1	2	5	-7
2	6	-3	-16
3	-4	-1	-18
4	12	-2	x
5	x	x	-3
6	-3	1	-60
7	5	4	-10
8	x	x	-22
9	10	10	-36
10	11	3	-13

# Next part
entry	SMILES	BJeLR lethal	RN4220 kill	Sa ugtP lethal	Bead autofluor
11	CN(C)S(=O)(=O)N1CCN(Cc2ccccc2)CC1	-6	1.6	7	11409
12	Cc1c(NS(=O)(=O)c2ccc(F)cc2)c(=O)n(-c2ccccc2)n1C	-23	4.5	8	3048
13	CC(=O)N(Cc1ccccn1)Cc1ccco1	5	3.5	5	6595
14	Cc1cc(C)nc(OC(=O)c2ccc(Cl)cc2Cl)n1	-12	2.0	0	x
15	COc1ccc(Oc2c(Cl)cnn(-c3ccc(F)cc3)c2=O)cc1	0	0.3	5	2222
16	COc1cc(OC)cc(C(=O)NCC(=O)OCc2nc3ccccc3s2)c1	12	1.0	-7	3524
17	O=C(Nc1ccc(C(F)(F)F)cc1)c1cccnc1N1CCOCC1	-8	1.5	2	21885*
18	CCOC(=O)N1CCN(Cc2ccccn2)CC1	-4	2.5	-1	u
19	O=c1[nH]c(NCCO)nc2ncn(Cc3ccccc3)c12	-6	-1.5	8	3513
20	Cc1noc(C)c1S(=O)(=O)N(C)CC1Oc2c(NC(=O)NC3CCCCC3)cccc2C(=O)N(C(C)CO)CC1C (configuration not stated)	x	0.6	-14	x

entry	Mtb hypoxia rep	Mtb hypoxia rep growth	PrP 5UTR inh
11	6	5	-41
12	0	-3	0
13	16	8	-53
14	6	0	x
15	x	x	-10
16	-6	1	-82
17	9	2	-14
18	-8	-2	-9
19	0	1	-22
20	-1	9	x

# (cont.)
entry	SMILES	BJeLR lethal	RN4220 kill	Sa ugtP lethal	Bead autofluor
21	O=C(Nc1cc(S(=O)(=O)N2CCOCC2)ccc1N1CCCC1)c1cc(=O)[nH]c2ccccc12	10	2.8	-6	4471
22	CCOC(=O)c1ccc(NC(=O)c2cc3c(s2)CCC3)cc1	-6	2.6	1	5082
23	Cc1cc(NS(=O)(=O)c2ccc(NC(=O)COc3ccc(Cl)c(C)c3)cc2)no1	-7	4.8	2	3690
24	COc1cccc(-c2c(C(=O)N/N=C(\C)c3ccncc3)nnn2-c2nonc2N)c1	-4	x	x	5509
25	COc1ccccc1C1c2ccc3ccccc3c2Oc2ncn(CCN(C)C)c(=N)c21 (configuration not stated)	13	-3.5	-10	4009
26	CC(=O)c1c(C)nc2ccc(Br)cc2c1-c1ccccc1	-8	1.6	9	2442
27	COc1ccc(N2C(=O)/C(=C/c3ccc(C)o3)C(=O)NC2=S)c(OC)c1	-12	9.2	4	4110
28	CCOc1cc(/C=N/n2cnnc2)cc(Br)c1O	4	x	x	3394
29	Cc1oc(=O)c(NC(=O)c2ccccc2)cc1C(=O)c1ccccc1	0	4.0	1	5410
30	Cn1c(=O)[nH]c(=O)c2c1nc(N1CCOCC1)n2CCSc1nnnn1-c1ccccc1	3	6.5	4	5111

entry	Mtb hypoxia rep	Mtb hypoxia rep growth	PrP 5UTR inh
21	7	4	12
22	x	x	-24
23	3	-1	10
24	x	x	-13
25	18	14	x
26	16	5	-5
27	7	2	-6
28	x	x	-9
29	3	12	-90
30	5	8	3

# The list goes on:
entry	SMILES	BJeLR lethal	RN4220 kill	Sa ugtP lethal	Bead autofluor
31	Cc1ccccc1-c1cccc([C@@H]2C[C@H]3[C@H](CON3C)CN2Cc2cc(Cl)cc(Cl)c2)c1	x	1.8	-5	3857
32	O=c1ccccn1Cc1ccccc1F	0	-16	-5	2794
33	COc1cccc(N2CCN(C(=O)CN3C(=O)NC4(CCCC4)C3=O)CC2)c1	-2	0.3	6	u
34	C#CC1CCCCC1NC(=O)Nc1cnccc1C(F)(F)F (configuration not stated)	-8	4.7	-1	5707
35	COc1ccc(C(=O)Nc2ccnn2C2CCN(Cc3ccn[nH]3)CC2)cc1	1	1.5	5	5029
36	COc1ccc(CCN(C)C(=O)c2c(C)nn(CC(C)C)c2Cl)cc1OC	3	5.9	-2	5297
37	ON=C1CCSc2ccc(F)cc21	x	7.7	8	x
38	Cc1ccc(CNC(=O)c2ccc(C)c(S(=O)(=O)N3CCCCC3)c2)cc1	x	2.4	3	4116
39	O=C(CNc1cccc(C(F)(F)F)c1)N/N=C/C1CCCCC1	6	x	x	2515
40	O=C(Nc1cccnc1N1CCOCC1)c1ccco1	3	0.3	-4	3161

entry	Mtb hypoxia rep	Mtb hypoxia rep growth	PrP 5UTR inh
31	-12	4	-22
32	22	-19	-90
33	-3	8	-5
34	-8	5	-25
35	-5	-2	-7
36	6	8	-5
37	9	12	x
38	4	-2	-13
39	x	x	-10
40	x	x	-2

# The list continues:
entry	SMILES	BJeLR lethal	RN4220 kill	Sa ugtP lethal	Bead autofluor
41	COc1ccc(N(C)S(=O)(=O)c2cccc(C(=O)Nc3nc(C)cs3)c2)cc1	x	6.7	-4	3988
42	COc1ccc(-c2noc(CNC(=O)Nc3ccc(F)cc3)n2)cc1	-3	-7.4	12	1969
43	Cc1cccc(NC(=O)CSc2nnnn2-c2cccnc2)c1	0	-0.1	-6	13236
44	CC(=NNc1c(F)c(F)c(Br)c(F)c1F)c1ccncc1	x	-7.2	12	x
45	COC(=O)Cc1sc(-c2ccccn2)nc1-c1ccccc1	-6	14	3	2189
46	CC(=NCCN1CCOCC1)c1c(O)n(-c2ccccc2C)c(=O)[nH]c1=O	3	2.7	8	23519*
47	Cc1ccccc1NC(=O)COC(=O)C1=COCCO1	x	3.5	1	u
48	CC1=Nc2ccccc2/C1=C/c1sc(=N)n(-c2nccs2)c1O	-4	97*	98*	2704
49	Cc1cccc2nc(CSc3nc4ccccc4[nH]3)cn12	-2	2.8	1	2382
50	CC(C)(C)c1ccc(-c2cc(C(=O)NNC(=O)Nc3ccccc3)c3ccccc3n2)cc1	-1	-13	52	3570

entry	Mtb hypoxia rep	Mtb hypoxia rep growth	PrP 5UTR inh
41	6	3	-18
42	7	4	-15
43	2	11	-24
44	-9	-3	x
45	-7	-3	-2
46	5	9	-5
47	5	2	-13
48	6	3	7
49	-9	-2	-15
50	-5	3	-49

# New compounds follow:
entry	SMILES	BJeLR lethal	RN4220 kill	Sa ugtP lethal	Bead autofluor
51	CCc1cccc(NC(=O)Cc2cn(C)c3ccccc23)c1	-18	3.0	-7	3950
52	CC(=O)NC(Nc1c(C)n(C)n(-c2ccccc2)c1=O)C(Cl)(Cl)Cl (configuration not stated)	8	4.8	-6	4554
53	CCn1cnc2c1c(=O)n(CC(=O)NN)c(=O)n2Cc1ccccc1	0	2.2	4	3949
54	CCNCc1ccc(OCc2ccccc2F)c(OC)c1	1	4.0	2	2658
55	CC1(C)CC(=O)c2cc(OCC(=O)NCc3cccnc3)ccc2O1	4	0.8	3	10990
56	O=C(Nc1ccccc1)C1=C[C@H](c2ccc3c(c2)OCO3)C[C@H](OCCCCO)O1	0	x	x	4048
57	COc1ccc2c(CC(=O)Nc3c(C)n(C)n(-c4ccccc4)c3=O)coc2c1	1	0.2	11	4729
58	COc1ccc2oc(C(=O)OC(C)C(=O)NC3(C#N)CCCCC3)c(C)c2c1 (configuration not stated)	-13	1.3	1	x
59	O=C(NCc1ccccc1Cl)C1CCC(=O)N(C2CCCC2)C1 (configuration not stated)	-1	2.0	5	5742
60	CCn1ccc(=O)c2cc3c(cc21)OCO3	5	6.6	1	3467

entry	Mtb hypoxia rep	Mtb hypoxia rep growth	PrP 5UTR inh
51	4	14	-11
52	2	2	-22
53	5	3	-9
54	13	5	-19
55	6	10	-28
56	x	x	-11
57	x	x	-30
58	5	0	-24
59	9	7	-7
60	20	6	-26

# New compounds follow:
entry	SMILES	BJeLR lethal	RN4220 kill	Sa ugtP lethal	Bead autofluor
61	COC(=O)CNC(=O)c1nn(-c2cccc(OC)c2)c(=O)c2ccccc12	x	0.3	-3	2451
62	CC1Sc2ccc(S(=O)(=O)CCC(=O)NC(C)c3ccccc3)cc2NC1=O (configuration not stated)	-7	4.6	9	4316
63	O=C1CCCc2c1nc(-c1cccc(Cl)c1)n2O	0	-3.2	-3	5018
64	Cc1nc2sccn2c(=O)c1S(=O)(=O)NCC(C)c1ccccc1 (configuration not stated)	4	7.1	-2	7100
65	CCCCNC(=O)C1CCCN(S(=O)(=O)c2c(C)noc2/C=C/c2cccs2)C1 (configuration not stated)	-9	3.7	4	4166
66	Cn1nc(-c2ccc(Cl)cc2)c2cc(C(=O)NCCN3CCOCC3)sc21	7	-0.7	-2	5497
67	CCn1cc(C(=O)N[C@@H](CCSC)C(=O)NCCCO)c(=O)c2cc3c(cc21)OCO3	-9	0.1	2	3197
68	Cc1occc1C(=O)NC1CCCc2ccccc21 (configuration not stated)	5	6.1	-1	9767
69	CCCC(=O)N(CCc1ccc(OC)cc1)Cc1nc2ccccc2c(=O)[nH]1	2	9.3	-3	6319
70	COc1cc2c(=O)n(CC3CCCO3)c(=O)n(CC(=O)Nc3ccc(F)cc3F)c2cc1OC (configuration not stated)	-12	1.0	-2	4160

entry	Mtb hypoxia rep	Mtb hypoxia rep growth	PrP 5UTR inh
61	x	x	-19
62	6	0	-6
63	-1	13	-20
64	-2	1	-28
65	0	3	-4
66	x	x	6
67	6	5	-1
68	5	10	-25
69	10	12	11
70	4	-8	-4

# (further entries)
entry	SMILES	BJeLR lethal	RN4220 kill	Sa ugtP lethal	Bead autofluor
71	COc1ccc(-c2c(C#N)c(SCC(=O)Nc3ccccc3)nc3c2CCCC3)cc1	1	0.4	4	4731
72	COc1ccc(-c2[nH]ncc2CN2CCCN(C(=O)c3ccco3)CC2)cc1F	-2	3.7	8	4417
73	CCN(C[C@H]1N[C@@](C)(C(=O)OC)[C@H]2C(=O)N(C)C(=O)[C@@H]12)C(=O)COC	x	0.5	2	3858
74	Cc1ccc(NC(=O)CSc2nc3c(c(=O)n(C)c(=O)n3C)n2C)cc1	0	4.5	2	4325
75	Cc1ccc(Nc2ncnc3nc[nH]c23)cc1Cl	-6	4.4	11	5574
76	COC(=O)CCC(=O)NC(=S)Nc1ccc(S(=O)(=O)Nc2cc(C)on2)cc1	-3	4.9	13	4357
77	COc1ccc(C(=O)/C=C/c2ccc(O)cc2)c2c1CC(O)C(C)(C)O2 (configuration not stated)	x	2.5	13	5760

entry	Mtb hypoxia rep	Mtb hypoxia rep growth	PrP 5UTR inh
71	x	x	-7
72	-1	10	-15
73	-3	2	-11
74	16	2	-13
75	5	4	-59
76	x	x	-37
77	x	x	3
